PINK1 modulator: PINK1 expression modulation | Potency, µM (highest dose often 76.6 µM), for the others: at the top dose activation (PINK1 increase), usual class: activators | PINK1 immunofluorescence, high-content cytometry, 24 h | 410,000 tested, 0.2% active; active = well fitted activation curve with a large enough effect; inconclusive = small, poorly fitted or top-dose-only effect; inactive = flat fitted curve, though single readings scatter; cell line not stated here;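 note: potency is the fitted concentration of half-maximal effect; % of control where 0% means no effect; nearly all actives have a fitted effect of over 65% in size; a mitochondrial uncoupler was the plate control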
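Measures PINK1 amount and localization on or inside mitochondria by immunofluorescence. Stable cells get compounds at 5 concentrations for 24 hours before fixation and staining; CCCP controls included.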
D2 agonist: agonists of human D2 dopamine receptor (beta-arrestin); P14416; DiscoveRx PathHunter D2 beta-arrestin, luminescence, 90 min; 100% = 57 uM dopamine signal; activation, % (test concentration not listed); 360,000 tested, 0.084% active; in the data active = activation above about 40%; inconclusive = about 15% to 40%; inactive = below about 15%; note: compound concentration not given in the record; the text of the record calls up to 30% inactive
Target sequence (P14416 whole entry, looked up): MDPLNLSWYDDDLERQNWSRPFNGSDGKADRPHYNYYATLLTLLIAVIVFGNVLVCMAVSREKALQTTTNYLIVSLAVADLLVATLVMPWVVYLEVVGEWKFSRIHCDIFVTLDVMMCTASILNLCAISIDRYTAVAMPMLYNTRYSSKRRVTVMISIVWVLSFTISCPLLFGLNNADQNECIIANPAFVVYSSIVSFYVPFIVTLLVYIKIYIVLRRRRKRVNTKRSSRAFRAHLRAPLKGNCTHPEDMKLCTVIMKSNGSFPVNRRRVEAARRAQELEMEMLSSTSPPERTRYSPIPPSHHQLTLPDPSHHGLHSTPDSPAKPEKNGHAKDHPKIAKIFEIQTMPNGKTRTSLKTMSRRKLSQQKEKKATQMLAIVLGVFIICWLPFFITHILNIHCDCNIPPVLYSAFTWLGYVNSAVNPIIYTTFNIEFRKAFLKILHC
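Agonist mode: compounds alone added to overnight-plated D2 PathHunter cells for 90 min at 37 C, with 57 uM final dopamine (EC100) defining full response. Beta-arrestin recruitment detected by chemiluminescent reagent, read after 1 h at ambient temperature.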
gsp antagonist: gsp mutant antagonism | gsp-mutant cells, cAMP HTRF, 30 min; control for the full effect not named in the record | Potency, µM (series often up to 76.9 µM), for the others: at the top dose activity change, negative = inhibition, actives largely listed as inhibitors | 340,000 tested, 0.4% active | AID 624288; active = falling curve of any shape with a large fitted effect; inconclusive = falling curve, mostly with a smaller effect; inactive = flat or rising curve; cell line not stated here;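 note: intracellular cAMP measured with PDE inhibitor Ro 20-1724 present during compound exposure; potency is the fitted concentration of half-maximal effect; % is set by controls: 0 for no effect and ±100 for the full control effect; nearly all actives have a fitted effect of over 65% in size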
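G418-selected cells were plated in DMEM/10% FBS for 16-24 h at 37C, then treated with compounds plus the PDE inhibitor […] (300 uM solution added) for 30 min at 37C. Intracellular cAMP was measured by HTRF after 30 min lysis at room temperature.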
Sfp inh: blocks B. subtilis Sfp PPTase activity | Q9F4F7 | 310,000 tested, 3.5% active | Potency, µM, without a hit: max response, negative = inhibition, hits mostly inhibitors | AID 1490 | Biochemical Sfp PPTase activity, qHTS; active = well fitted inhibition curve with a large enough effect; inconclusive = small, poorly fitted or top-dose-only effect, or another doubt; inactive = no such curve, though single readings can be large or run the other way;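 note: the enzyme is Sfp with the accession as filed and its product quenches rhodamine fluorescence; potency is the fitted concentration of half-maximal effect; 0% = enzyme reaction without inhibitor and -100% = no enzyme wells; top concentration of the series not given in the record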
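Sfp 15 nM + cpd, 15 min RT; start w/ rhodamine-CoA 5 uM, BHQ-2-YbbR 12.5 uM (final); 50 mM Hepes pH 7.6, 10 mM MgCl2, 0.01% NP-40, 0.01% BSA; read 525/598 nm at 0 and 30 min.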
gsp agonist: activates gsp, the McCune-Albright syndrome mutation; gsp mutant cells, cAMP HTRF, 30 min; control for the full effect not named in the record; Potency, µM (doses to about 76.9 µM), inactives show top-dose activation (cAMP increase), most hits filed as activators; 340,000 tested, 0.13% active; AID 624287; active = well fitted activation curve with a large enough effect; inconclusive = small, poorly fitted or top-dose-only effect, or another doubt; inactive = no such curve, though single readings can be large or run the other way; cell line not stated here;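 note: phosphodiesterase inhibitor Ro 20-1724 added with compounds to block cAMP breakdown; potency is the fitted concentration of half-maximal effect; nearly all actives have a fitted effect of over 60% in size; about a fifth of the inactives were tested at one dose only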
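Cells stably selected in G418 were plated at 2000/well, grown 16-24 hr, then given compounds in DMSO with the PDE inhibitor […] (300 uM solution added) for 30 min at 37C; cAMP was read by HTRF.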
ClpP mod: qHTS Assay for Activators of ClpP; Potency, µM (series often up to 57.5 µM), for inactives: at the highest dose activity change, negative = active; 340,000 tested, 1.9% active; purified B. subtilis ClpP, FRET peptide cleavage, 20 min; ATP-dependent Clp protease proteolytic subunit (Bacillus subtilis (strain 168)), P80244; active = well fitted falling curve with a large enough effect; inconclusive = small, poorly fitted or top-dose-only effect; inactive = no such curve, though single readings can be large or run the other way; note: potency is the fitted concentration of half-maximal effect; the source files actives as falling curves though it sought activators and does not explain the sign; nearly all actives have a fitted effect of over 65% in size; many hits overshoot -100%
Target sequence (P80244 whole entry, looked up): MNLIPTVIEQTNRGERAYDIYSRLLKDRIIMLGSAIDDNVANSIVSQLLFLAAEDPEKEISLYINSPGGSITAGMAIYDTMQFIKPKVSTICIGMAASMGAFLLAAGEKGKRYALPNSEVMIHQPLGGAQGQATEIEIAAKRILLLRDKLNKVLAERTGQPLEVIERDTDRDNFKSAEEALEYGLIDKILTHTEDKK
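ClpP 10 microg/mL final, pH 8 Tris/KCl buffer with BSA, glycerol, Tween-20; compound pinned in; FRET-FV substrate; RT 20 min; Ex320/Em430; ΔFRET vs ADEP 5.8 microM, DMSO, no enzyme.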
Menin-MLL FL inh: menin-MLL binding inhibition, fluorescein peptide; AID 1766; 290,000 tested, under 10 active; Fluorescence polarization, fluorescein-MLL peptide displacement from menin; FP activity change, % at 61.4 µM; inconclusive = falling polarisation curve, or a change in total fluorescence; inactive = total fluorescence flat and polarisation flat or rising; no compound was filed as active; the % refers to the polarisation; negative = inhibition;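 note: % of control where 0% means no effect; inhibitors lower the polarisation; unlabelled MLL peptide was the positive control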
Numbers without * were called inactive; & = joins results of further samples; [ ] = dose if it differs, or a comment. No enrichment for hits; any-hit rate near 5.1%.

Screening O=C(Cc1ccccc1)Nc1ncccc1Cl returned PINK1 modulator 0.0%, D2 agonist -0.5, gsp antagonist 10.2% and gsp agonist -0.3%[15.4 µM].
Screening Cc1ccc(N=C2SCCCN2C(=O)C2=COCCO2)cc1Cl returned PINK1 modulator -0.3%, D2 agonist -15.5, gsp antagonist -8.1%, gsp agonist 17.1%[15.4 µM] and ClpP mod -5.3%.
COc1ccc(Br)cc1/C=N/n1c(C)nc2ccccc2c1=O was read as PINK1 modulator 2.1%, D2 agonist 1.1, gsp antagonist -1.6%, Sfp inh -28.9%, gsp agonist inconclusive, ClpP mod -2.7% and Menin-MLL FL inh -1.5.
Cc1ccccc1OCc1nc(-c2ccc(NC(=O)c3cccs3)cc2)no1 was read as PINK1 modulator 8.8%, D2 agonist 4.0, gsp antagonist -9.2%, Sfp inh 3.5%, gsp agonist -3.6%, ClpP mod -16.7% and Menin-MLL FL inh 3.8.
CCOC(=O)/C=C1\NC(C)(C)Cc2cc(OC)c(O)cc21 was read as PINK1 modulator 2.1%[38.3 µM], D2 agonist 2.0, gsp antagonist -32.2%, Sfp inh 9.4%, gsp agonist -16.9%, ClpP mod -0.6% and Menin-MLL FL inh -3.7.
Cc1ccc(-n2c(SCC(=O)NCc3ccco3)nc3nc4c(cc3c2=O)COC(C)(C)C4)cc1 was read as PINK1 modulator 5.3%, D2 agonist -4.7, gsp antagonist -8.8%, Sfp inh 25.1µM*, gsp agonist -25.3%, ClpP mod -4.0% and Menin-MLL FL inh 3.8.
`CCC(=O)Nc1ccc(Cl)c(NC(=O)c2ccc(Br)o2)c1` gave PINK1 modulator -0.6%, D2 agonist -6.0, gsp antagonist -10.9%, Sfp inh -3.7%, gsp agonist -2.9%, ClpP mod 1.0% and Menin-MLL FL inh -1.1.
Screening O=C(CN1C(=O)C2CC=C(Cl)CC2C1=O)N1CCOCC1 (configuration not stated) returned PINK1 modulator 0.2%, D2 agonist -2.3, gsp antagonist 15.8%, Sfp inh -16.4%, gsp agonist -2.6%, ClpP mod 0.9% and Menin-MLL FL inh 1.7.
Screening O=C(Nc1ccc2c(c1)oc1ccccc12)N1CCOCC1 returned PINK1 modulator 0.0%, D2 agonist -1.1, gsp antagonist -13.1%, Sfp inh 18.4%, gsp agonist -29.6%, ClpP mod -5.1% and Menin-MLL FL inh -2.1.
Cc1cccc(C)c1NC(=O)Cc1cccs1 was read as PINK1 modulator -0.6%, D2 agonist 1.9, gsp antagonist 8.3%, Sfp inh 12.8%, gsp agonist -0.3%[15.4 µM], ClpP mod -0.8% and Menin-MLL FL inh -2.6.
Cc1cccc(-c2nc(-c3ccncc3)no2)c1 was read as PINK1 modulator 0.8%, D2 agonist 5.7, gsp antagonist 7.2%, Sfp inh -1.2%, gsp agonist 3.5%[15.4 µM], ClpP mod 0.3% and Menin-MLL FL inh 3.2.
Screening Nc1ccc(C(=O)c2ccccc2C(=O)O)cc1Cl returned PINK1 modulator 4.0%[38.3 µM], D2 agonist -2.0, gsp antagonist 4.9%, Sfp inh 12.1%, gsp agonist 1.3%, ClpP mod 4.8% and Menin-MLL FL inh 3.7.
COc1ccc(CCN(C)C(=O)c2oc3ccccc3c2C)cc1OC was read as PINK1 modulator -1.3%, D2 agonist -1.3, gsp antagonist 8.8%, gsp agonist -2.9% and ClpP mod 1.0%.
Cc1cc(C(=O)CN2CCC(C)CC2)c(C)n1-c1ccc(F)cc1 was read as PINK1 modulator -0.7%, D2 agonist -2.0, gsp antagonist 14.5%, Sfp inh 6.9%, gsp agonist -19.5%, ClpP mod 0.5% and Menin-MLL FL inh 1.5.
COc1cccc(CC(=O)OCC(=O)NCc2ccc3c(c2)OCO3)c1 was read as PINK1 modulator -1.4%, D2 agonist -0.4, gsp antagonist 5.9% and gsp agonist -1.5%.
`CC(=O)c1ccc(N(C(=O)c2ccco2)C(C(=O)NC2CCCC2)c2cccs2)cc1` (configuration not stated) gave PINK1 modulator 1.4%, D2 agonist -3.1, gsp antagonist -11.8%, Sfp inh 8.0% and gsp agonist 15.7%[15.4 µM].
`COC(=O)/C(C#N)=C/c1c[nH]c2ccccc12` gave PINK1 modulator 2.5%, D2 agonist 4.8, gsp antagonist -11.3%, Sfp inh 10.0%, gsp agonist -7.2% and Menin-MLL FL inh 2.6.
For CCCCNC(=O)c1onc(CSc2ccccc2F)c1C(=O)O the results were PINK1 modulator -0.9%, D2 agonist 0.5, gsp antagonist -9.6%, Sfp inh 12.9%, gsp agonist -39.4%[inhibitor], ClpP mod 1.3% and Menin-MLL FL inh 0.0.
Screening CC(C)CCn1c2ccccc2c2cc(CC(N)=O)ccc21 returned PINK1 modulator 1.3%, D2 agonist -1.1, gsp antagonist 1.4%, Sfp inh 6.5%, gsp agonist 2.1% and Menin-MLL FL inh -0.9.
`O=C(c1cc(=O)[nH]c2ccccc12)N1CCN(S(=O)(=O)c2ccc(Cl)cc2)CC1` gave PINK1 modulator 1.2%, D2 agonist -1.3, gsp antagonist -4.8%, gsp agonist inconclusive and ClpP mod -26.5%.
Screening O=c1c2[nH]cnc2n(-c2cccc(F)c2)c(=O)n1Cc1ccccc1 returned PINK1 modulator -2.7%, D2 agonist -5.3, gsp antagonist 7.4%, Sfp inh -14.6%, gsp agonist -1.1%, ClpP mod -1.0% and Menin-MLL FL inh 2.7.
Screening CCCCCNC(=O)C1CC=CCC1C(=O)O (configuration not stated) returned PINK1 modulator 1.0%, D2 agonist 1.2, gsp antagonist 10.7%, Sfp inh 18.0%, gsp agonist -4.4%, ClpP mod 0.5% and Menin-MLL FL inh 1.3.
`COC(=O)[C@H](CC(C)C)NC(=O)Nc1ccc2c(c1)OCCO2` gave PINK1 modulator 9.9%[38.3 µM], D2 agonist -2.9, gsp antagonist 8.7%, Sfp inh 24.2%, gsp agonist -24.2%, ClpP mod 0.2% and Menin-MLL FL inh 0.2.
`CCN1CCN(c2ccc(S(=O)(=O)N3CCOCC3)cc2NC(=O)c2ccc(Cl)cc2Cl)CC1` gave PINK1 modulator 6.9%, D2 agonist -1.5, gsp antagonist -2.7% and gsp agonist 9.0%[15.4 µM].
`O=S(=O)(NN=Cc1ccc(O)cc1O)c1cc(Cl)c(Cl)cc1Cl` gave PINK1 modulator -1.7%, D2 agonist -0.2, gsp antagonist -0.4%, gsp agonist -15.3% and ClpP mod -28.5%.
O=C(Nc1cc(C(F)(F)F)ccc1-n1cncn1)c1ccc(F)cc1Cl was read as PINK1 modulator 4.8%, D2 agonist -0.9, gsp antagonist 1.4%, gsp agonist 6.9% and ClpP mod -5.2%.
Screening CCN(CCO)C(=O)C(c1ccccc1)c1ccccc1 returned PINK1 modulator -0.4%, D2 agonist -2.3, gsp antagonist 3.6%[15.4 µM], Sfp inh -2.2%, gsp agonist 10.5%, ClpP mod -2.2% and Menin-MLL FL inh 1.2.
COc1cccc(C(=O)NNC(=O)Cc2cccs2)c1 was read as PINK1 modulator -0.4%, D2 agonist -8.4, gsp antagonist 11.5%, Sfp inh 22.1%, gsp agonist -1.5%[15.4 µM] and Menin-MLL FL inh -5.0.
CCOc1ccc(S(=O)(=O)NCCC(=O)NC2CCC(C)CC2)cc1 (configuration not stated) was read as PINK1 modulator -2.9%, D2 agonist -0.3, gsp antagonist 8.6% and gsp agonist -4.1%.
For COc1cccc(OC)c1C(=O)Nc1ccc2c(c1)CCCN2S(=O)(=O)c1ccc(C)cc1 the results were PINK1 modulator -0.3%&3.2%, D2 agonist -1.8, gsp antagonist -1.5%, Sfp inh 11.4%, gsp agonist 29.2% and ClpP mod -1.5%&-1.8%.
For Cc1ccccc1OCC(=O)NNC=O the results were PINK1 modulator 0.0%, D2 agonist -0.3, Sfp inh 20.5%, gsp agonist -3.0%[15.4 µM] and Menin-MLL FL inh -3.3.
Oc1ccc(Nc2ncnc3scc(-c4ccccc4)c23)cc1 was read as PINK1 modulator 13.5%, D2 agonist -4.3, gsp antagonist -8.5%, Sfp inh 10.8%, gsp agonist -3.3%[15.4 µM], ClpP mod -0.1% and Menin-MLL FL inh 15.9.
COc1ccc([C@H]2CC(=O)C=C(c3cc4ccccc4c4ccccc34)C2)cc1 was read as PINK1 modulator 5.1%, D2 agonist -2.0, gsp antagonist 3.7%, gsp agonist -39.4%[inhibitor] and ClpP mod 0.6%.
O=C(CCSc1nc(-c2ccco2)cc(C(F)(F)F)n1)N1CCCc2ccccc21 was read as PINK1 modulator 0.6%, D2 agonist -1.3, gsp antagonist -11.2%, Sfp inh -9.8%, gsp agonist 3.7%, ClpP mod -1.5% and Menin-MLL FL inh 5.4.
For O=C(N/C(=C\c1ccc(Br)cc1)C(=O)N1CCOCC1)c1ccccc1Cl the results were PINK1 modulator 0.7%, D2 agonist 0.3, gsp antagonist -1.1%, Sfp inh 2.3%, gsp agonist 15.9%[15.4 µM], ClpP mod -2.7% and Menin-MLL FL inh -1.0.
FC(F)(F)c1ccc(Cl)c(Nc2nnc(-c3ccncc3)s2)c1 was read as PINK1 modulator 1.9%, D2 agonist 3.1 and ClpP mod -10.7%.
Screening COc1ccc(S(=O)(=O)Nc2ccc3c(c2)C(=O)N([C@H](C)CO)C[C@H](C)[C@@H](CN(C)C(=O)Nc2ccc(F)cc2)OCCCC[C@H](C)O3)cc1 returned PINK1 modulator 0.5%, D2 agonist -8.6, gsp agonist -53.6%[inhibitor] and ClpP mod -1.0%.
`C=CCNC(=S)NCCCCC1NC(=S)N(CC=C)C1=O` (configuration not stated) gave PINK1 modulator 2.1%, D2 agonist -6.1, gsp antagonist inconclusive, Sfp inh 4.1%, gsp agonist 0.7%[15.4 µM] and Menin-MLL FL inh 1.9.
`CCN(CC)S(=O)(=O)c1ccc(Cl)c(NC(=O)COc2ccc3c(C)cc(=O)oc3c2)c1` gave PINK1 modulator 3.8%, D2 agonist -4.2, gsp antagonist 1.5%, Sfp inh 26.9%, gsp agonist 8.0% and ClpP mod -16.5%.
For COCCN(C(=O)CCC(=O)Nc1cc(C)on1)C(C(=O)NC1CCCC1)c1ccccc1C (configuration not stated) the results were PINK1 modulator 0.4%, D2 agonist -2.5, gsp antagonist 6.1%, Sfp inh -12.6%, gsp agonist -4.8%, ClpP mod 1.7% and Menin-MLL FL inh -2.3.
